ClpP mod: qHTS Assay for Activators of ClpP. Potency, µM (titrated, usually from 57.5 µM), for inactives: at the top dose activity change, negative = active. 1.9% of 340,000 active. purified B. subtilis ClpP, FRET peptide cleavage, 20 min; active = well fitted falling curve with a large enough effect; inconclusive = small, poorly fitted or top-dose-only effect; inactive = no such curve, though single readings can be large or run the other way; also: potency is read from the fitted curve at half-maximal effect; the source files actives as falling curves though it sought activators and does not explain the sign; nearly all actives have a fitted effect of over 65% in size; many hits overshoot -100%
Target sequence (P80244 whole entry, looked up): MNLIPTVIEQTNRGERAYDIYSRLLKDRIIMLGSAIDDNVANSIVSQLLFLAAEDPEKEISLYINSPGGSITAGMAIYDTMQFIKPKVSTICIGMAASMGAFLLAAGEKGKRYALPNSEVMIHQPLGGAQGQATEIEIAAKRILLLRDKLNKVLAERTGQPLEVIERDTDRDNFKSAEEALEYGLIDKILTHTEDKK
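Purified B. subtilis ClpP, 10 microg/mL final in Tris/HCl pH8 with KCl, BSA, glycerol and Tween-20, cleaved an Abz/nitrotyrosine-quenched decapeptide. Fluorescence (ex 320, em 430) was read at 0 and 20 min at room temperature. Delta was normalized to 5.8 microM ADEP and DMSO/no-enzyme controls.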
gsp antagonist: qHTS for Antagonists of gsp, the Etiologic Mutation Responsible for Fibrous Dysplasia/McCune-Albright Syndrome: qHTS | gsp-mutant cells, cAMP HTRF, 30 min; control for the full effect not named in the record | Potency, µM (doses to about 76.9 µM), for inactives: at the top dose activity change, negative = inhibition, hits mostly inhibitors | 0.4% of 340,000 active; active = falling curve of any shape with a large fitted effect; inconclusive = falling curve, mostly with a smaller effect; inactive = flat or rising curve; cell line not stated here;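 also: intracellular cAMP measured with PDE inhibitor Ro 20-1724 present during compound exposure; potency is read from the fitted curve at half-maximal effect; % is scaled to controls: 0 for no effect and ±100 for the full control effect; nearly all actives have a fitted effect of over 65% in size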
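G418-selected cells were plated in DMEM/10% FBS for 16-24 h at 37C, then treated with compounds plus the PDE inhibitor […] (300 uM solution added) for 30 min at 37C. Intracellular cAMP was measured by HTRF after 30 min lysis at room temperature.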
TRPML1 blocker: qHTS for Inhibitors of the Human Mucolipin Transient Receptor Potential 1 (TRPML1); Mucolipin-1 (Homo sapiens), Q9GZU1; TRPML1-inducible cells, Ca2+ dye fluorescence, FDSS; hits give low values; inhibition of EC80 agonist-evoked calcium signal; activity change, negative = inhibition, % (no concentration beside the values); 0.02% of 390,000 active; AID 624415, 2012; in the data active means activity change below about -50%; inconclusive means about -30% to -50%; inactive means above about -30%;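 also: stimulus is agonist 54-4 at its EC80 concentration; % is scaled to controls: 0 for no effect and ±100 for the full control effect; compound concentration not given in the record; the text of the record puts the active cut at -80%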
Target sequence (Q9GZU1 whole entry, looked up): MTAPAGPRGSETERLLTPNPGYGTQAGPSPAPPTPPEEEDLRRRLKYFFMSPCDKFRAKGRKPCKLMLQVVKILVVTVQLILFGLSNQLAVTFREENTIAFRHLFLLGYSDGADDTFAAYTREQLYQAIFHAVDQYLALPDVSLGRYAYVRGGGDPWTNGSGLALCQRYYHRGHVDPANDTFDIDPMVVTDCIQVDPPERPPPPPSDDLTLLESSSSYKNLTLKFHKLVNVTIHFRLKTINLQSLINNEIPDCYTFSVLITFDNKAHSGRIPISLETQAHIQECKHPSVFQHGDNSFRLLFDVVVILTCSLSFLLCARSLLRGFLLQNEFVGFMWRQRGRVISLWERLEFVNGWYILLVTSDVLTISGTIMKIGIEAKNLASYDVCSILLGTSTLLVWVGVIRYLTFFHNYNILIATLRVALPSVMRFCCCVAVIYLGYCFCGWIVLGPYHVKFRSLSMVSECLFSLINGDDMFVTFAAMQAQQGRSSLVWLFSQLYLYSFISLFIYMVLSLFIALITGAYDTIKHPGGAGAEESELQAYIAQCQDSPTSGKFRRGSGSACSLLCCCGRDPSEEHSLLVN
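Tet-induced TRPML1-DL cells loaded with Ca8 no-wash calcium dye were read kinetically on FDSS. Compound addition was followed by EC80 agonist 54-4 (4 uM final); inhibition was read over 110 s.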
gsp ag: qHTS for Agonist of gsp, the Etiologic Mutation Responsible for Fibrous Dysplasia/McCune-Albright Syndrome: qHTS. gsp mutant cells, cAMP HTRF, 30 min; control for the full effect not named in the record. Potency, µM (highest dose often 76.9 µM), for inactives: top-dose activation (cAMP increase), actives largely listed as activators. 0.13% of 340,000 active. AID 624287, 2012; active = well fitted activation curve with a large enough effect; inconclusive = small, poorly fitted or top-dose-only effect, or another doubt; inactive = no such curve, though single readings can be large or run the other way; cell line not stated here;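 also: phosphodiesterase inhibitor Ro 20-1724 added with compounds to block cAMP breakdown; potency is read from the fitted curve at half-maximal effect; nearly all actives have a fitted effect of over 60% in size; about a fifth of the inactives were tested at one dose only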
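Cells stably selected in G418 were plated at 2000/well, grown 16-24 hr, then given compounds in DMSO with the PDE inhibitor […] (300 uM solution added) for 30 min at 37C; cAMP was read by HTRF.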
TRPML1 agonist: qHTS for Agonists of the Human Mucolipin Transient Receptor Potential 1 (TRPML1) | TRPML1-expressing cells, Ca2+ dye fluorescence, FDSS; host cell line not named in the record; reference of the full effect not given here | activation, % (concentration not given with the values) | 0.12% of 410,000 active | AID 624414, 2012; in the data active = activation above about 50%; inconclusive = about 30% to 50%; inactive = below about 30%; also: 0% is about no effect; the text of the record puts the active cut at 80%
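TRPML1-DL cells, Tet-induced overnight (~16 h, 37 degrees C), loaded 45-90 min at room temperature with Ca8 no-wash calcium dye plus quencher. FDSS fluorescence: 10 s baseline, compound pin-transfer, 110 s agonist read, then EC80 54-4 (4uM final) and 110 s antagonist read.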
Menin-MLL FL inh: qHTS Assay for Inhibitors Targeting the Menin-MLL Interaction in MLL Related Leukemias: Competition With Fluorescein Labeled MLL-derived Peptide. Fluorescence polarization, fluorescein-MLL peptide displacement from menin. FP activity change, % at 61.4 µM. 290,000 tested, under 10 active. AID 1766, 2009; inconclusive = falling polarisation curve, or a change in total fluorescence; inactive = total fluorescence flat and polarisation flat or rising; no compound was filed as active; the % refers to the polarisation; negative = inhibition;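 also: % of control where 0% means no effect; inhibitors lower the polarisation; unlabelled MLL peptide was the positive control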
Starred values were filed as active, the others as inactive; ? = inconclusive; / = no result given; [ ] = another dose, or the depositor's remark.

SMILES	ClpP mod	gsp antagonist	TRPML1 blocker	gsp ag	TRPML1 agonist	Menin-MLL FL inh
CN(CCCC(=O)NCc1ccco1)S(=O)(=O)c1ccccc1	-0.7%	7.1%	25.7	-11.5%	0.1	-5.8
CSc1ccc(/C=C2\C(=N)N3N=C(CC(=O)N4CCOCC4)SC3=NC2=O)cc1	-4.3%	-5.6%	-12.9	-35.0%[inhibitor]	-0.2	/
Cc1cccc(-c2noc(-c3ccc(Cl)cc3[N+](=O)[O-])n2)c1	-1.4%	-9.0%	-12.1	12.0%	1.6	6.5
Clc1ccc(N2COC3c4cccc5cccc(c45)C32)cc1 (stereo unspecified)	-0.9%	-11.7%	13.2	0.9%	0.0	4.9
CN(C)Cc1c(C(=O)N/N=C/c2ccncc2)nnn1-c1nonc1N	-8.9%	-6.0%	-4.4	-21.1%[15.4 µM]	0.0	-4.5
COCCN=c1scc(-c2cc(OC)ccc2OC)n1/N=C/c1c[nH]c2ccccc12	-5.9%	-9.1%	-26.0	-3.2%	-0.1	8.1
Cc1cc(Nc2ccc(C)c(C)c2)n2ncnc2n1	0.3%	/	-6.8	-31.1%[inhibitor]	-0.3	/
CCO[C@H]1OC(C(=O)N2CCN(Cc3ccc4c(c3)OCO4)CC2)=C[C@@H](C2CC2)[C@@H]1CCCO	-0.7%	-14.3%	-10.9	/	-0.8	0.7
CN(c1ccccc1C(=O)Nc1cccc(Br)c1)S(=O)(=O)c1ccccc1	-1.7%	?	64.3	-26.7%	2.0	4.2
O=C(Nc1cc(C(F)(F)F)ccc1N1CCOCC1)c1cccnc1Cl	-1.3%	-9.5%	7.5	-2.9%	-0.5	4.4
Cc1ccc(-c2c[n+](CC(=O)Nc3ccccc3)c3n2CCC3)cc1	-0.5%	5.5%	9.0	-3.2%[15.4 µM]	0.5	-1.3
CN(C)CCCN1c2ccc3ccccc3c2Sc2cccc(Cl)c21	-3.3%	6.2%	-17.7	23.7%	1.2	/
COc1ccc(NCc2nnc(SCC(=O)Nc3cccc(C)c3)o2)cc1	-1.5%	12.7%	9.9	-1.8%	-0.8	5.2
CCOC(=O)c1c(C)[nH]c(C(=O)COC(=O)c2ccc(N3CCCC3=O)cc2)c1C	-0.4%	3.6%	6.0	-0.6%	-0.7	-0.4
Cc1c(CCC(=O)O)c(=O)oc2cc(OCc3ccc(Br)cc3)ccc12	4.3%	-18.2%	0.5	23.8%	-0.1	3.1
Cc1cc(=O)[nH]c2ccc(Cc3ccccc3)cc12	/	14.0%	12.5	1.0%	2.2	/
COc1cc(OC)cc(C(=O)Nc2cc3c(cc2N2CCCC2)n(C)c(=O)c(=O)n3C)c1	?	/	15.8	/	1.9	/
CCNC(=O)C1(C)CCN(C(=O)c2cccc(OC(F)(F)F)c2)C1 (stereo unspecified)	-1.2%	/	2.6	/	-0.1	/
COc1cccc(-c2c(C(=O)N/N=C(\C)COc3ccccc3)nnn2-c2nonc2N)c1	-0.5%	-1.3%	7.4	41.8%	0.6	-6.8
C[C@H](CO)N1C[C@H](C)[C@@H](CN(C)C(=O)Nc2ccccc2)Oc2c(NS(=O)(=O)c3ccc(F)cc3)cccc2C1=O	-5.5%	0.6%	31.6	-0.6%	0.2	/
CCOc1ccc(NC(=NCc2ccc3c(c2)OCO3)SC2CC(=O)N(c3ccc(C(=O)O)cc3)C2=O)cc1 (stereo unspecified)	3.5%	-10.8%	34.6	13.2%[15.4 µM]	1.4	0.2
COc1ccc(C2=NC(C)(C)Cc3cc(OC)c(OC)cc32)cc1	0.3%	10.9%	-24.3	8.8%	2.5	0.2
O=C(Nc1ccccc1C(F)(F)F)NC1CCCCC1	-0.8%	8.7%	-4.1	-4.9%	1.9	-1.2
CCc1ccc(Oc2ncnc(N)c2[N+](=O)[O-])cc1	/	3.9%	10.9	-13.9%	1.3	2.1
COc1ccc(OC)c(NS(=O)(=O)c2ccc3c(c2)CCC(=O)N3)c1	-1.2%	3.4%	-8.2	18.6%	1.5	0.2
COCC(=O)N(C)C[C@@H]1Oc2cc(-c3ccc(F)cc3)ccc2S(=O)(=O)N([C@H](C)CO)C[C@H]1C	-4.7%	/	33.1	-7.0%	0.4	/
COc1cc(C(C(=O)NCc2ccccc2)N(C(=O)c2snc(C(N)=O)c2N)C2CCCC2)cc(OC)c1OC (stereo unspecified)	/	-10.8%	37.2	18.5%	-0.1	0.4
CN(Cc1ccccc1)c1nc(-c2cccc([N+](=O)[O-])c2)nc2ccccc12	0.7%	16.8%	-5.2	5.7%[15.4 µM]	-0.9	4.4
CCOc1cc(/C=C\c2[nH]c(=O)[nH]c(=O)c2[N+](=O)[O-])ccc1OC(C)CC (stereo unspecified)	-0.5%	?	-71.0*	-65.8%[inhibitor]	-0.6	0.4
CC(C(=O)NCC1CCCO1)n1cccc1C(=O)c1ccccc1 (stereo unspecified)	1.3%	-5.9%	16.0	12.5%	0.6	3.6
O=C(CCn1nc(-c2ccccc2)c2ccccc2c1=O)N1CCN(c2ccccc2)CC1	0.3%	-11.8%	16.0	5.1%	0.4	4.4
CCCCn1c(N)c(N(CC)C(=O)c2cccc(OC)c2)c(=O)[nH]c1=O	/	-2.8%	11.2	-4.8%	0.2	-1.7
COc1ccc(C(=O)Nc2ccc(Cn3ccnc3)cc2)cc1OC	/	18.5%	1.9	-61.2%[inhibitor]	-0.5	-2.8
COc1cc(C(=O)c2ccccc2)c(OC)cc1C(=O)Nc1ccc(O)cc1	/	-16.7%	19.9	-122.0%[inhibitor]	1.7	1.4
CCOc1ccccc1NC(=O)C(OC(=O)c1ccccc1NS(=O)(=O)c1cccs1)c1ccccc1 (stereo unspecified)	-4.0%	5.7%	-14.3	-3.3%	0.0	5.1
CCOc1ccc(/C=N/NC(=O)CN2CCSCC2)cc1	-7.0%	10.2%	-0.7	-3.9%	0.8	3.8
O=C1/C(=C\c2ccccc2)CN(C(=O)CCN2CCCCC2)C/C1=C/c1ccccc1	?	14.0%	4.1	1.2%	1.3	/
O=C(NCCCN1CCCC1=O)c1ccc2c(c1)ncn2C1CCCCC1	-0.8%	-6.3%	18.1	6.7%	-0.2	2.1
CCn1c(C)cc(/C=C2/SC(=S)NC2=O)c1C	-2.1%	5.4%	-1.6	-20.8%	0.5	?
CCOc1ccc(OCC)c(S(=O)(=O)NCCOC23CC4CC(CC(C4)C2)C3)c1	0.3%	-18.5%	36.8	7.3%	2.6	2.7
Cc1cc(C)c2cc(C#N)c(N3CCCC3)nc2c1	25.1µM*	-9.8%	0.1	21.8%	0.2	2.2
Cc1cccc(/C=N\NC(=O)c2ccccc2-n2cccc2)c1	/	/	16.8	8.5%[15.4 µM]	3.4	0.6
Clc1cccc(Cl)c1COc1ccccc1CNn1cnnc1	-0.2%	6.1%	-18.1	3.4%	1.4	-0.2
CCOc1ccc(NC(=O)C(C)N2C(=O)c3ccccc3C2=O)cc1 (stereo unspecified)	-1.3%	-0.7%	38.9	37.1%[15.4 µM]	1.1	-4.7
COc1ccc(NC(=O)O/N=C/c2ccccc2)cc1	-1.1%	5.3%	27.5	-7.0%	-0.2	0.7
CCOC(=O)c1cn(Cc2ccccc2)nc1-c1ccccc1	-0.9%	-6.4%	28.9	-35.7%[inhibitor]	5.8	/
CCCN1CCN(CCCNC(=O)C2CCCN(c3nnc(-n4cccc4)s3)C2)CC1 (stereo unspecified)	0.5%	6.5%	-4.8	-0.4%	-0.5	0.5
COc1ccc(C2CC(c3ccc(OC)c(OC)c3)=NN2S(C)(=O)=O)cc1 (stereo unspecified)	-23.4%	-14.9%	/	?	/	2.6
COc1ccc(CN(CC(O)COc2cccc3[nH]cc(C)c23)C(C)(C)C)cc1 (stereo unspecified)	0.1%	3.2%	7.4	16.5%	0.4	-0.8
O=c1c2ccccc2cnn1CCOc1cccc(Br)c1	-4.3%	-5.8%	-12.7	2.6%[15.4 µM]	0.3	4.5
CN(C(=O)COC(=O)c1cc(S(=O)(=O)N(C)C)ccc1Cl)C1CCS(=O)(=O)C1 (stereo unspecified)	1.2%	10.6%	19.0	23.7%	0.2	/
CCOC(=O)N1CCN(c2cc(C)c([N+](=O)[O-])cc2F)CC1	/	-13.0%	4.7	-2.6%[15.4 µM]	0.1	-3.9
COc1cccc(CN(C)C(=O)CCNC(=O)c2ccc(Br)cc2)c1	-7.8%	-14.2%	-4.3	-16.4%	1.1	/
Cc1cccc(Cc2c(C)nc3c(C(=O)NCc4ccco4)cnn3c2C)c1	31.6µM*	-4.2%	14.1	-2.7%	0.6	3.3
CCn1c(N2CCN(C(=O)NC3CCCCC3)CC2)nc2ccccc21	0.1%	8.4%	-5.6	-8.4%	-0.8	0.1
O=C(c1cccc(S(=O)(=O)N2CCc3ccccc32)c1)N1CCCC(C(F)(F)F)C1 (stereo unspecified)	-1.4%	-12.4%	23.5	-4.0%	1.4	/
Cc1cc(C(=O)OCC(=O)Nc2ccccc2Cl)c(C)o1	0.9%	6.1%	6.3	-6.2%	6.4	/
COc1cc(CCNC(=O)c2ccc3c(c2)c(C)c(C)n3Cc2cccc(C)c2)cc(OC)c1OC	-17.3%	/	5.8	/	0.5	/
CCOC(=O)c1nnn(-c2nonc2N)c1COc1ccccc1	0.2%	-3.5%	55.7	7.3%	2.2	4.2
Cc1[nH]nc2c1/C(=N/O)CC(c1ccccc1)C2 (stereo unspecified)	1.0%	-9.9%	1.5	11.1%	-0.3	-1.9

New compounds follow
SMILES	ClpP mod	gsp antagonist	TRPML1 blocker	gsp ag	TRPML1 agonist	Menin-MLL FL inh
Cc1ccc(NC(=O)COC(=O)Cc2csc(-c3ccc(Cl)cc3)n2)cc1C	-24.3%	1.2%	0.7	-16.6%	2.5	2.4
C/C(CC(=O)Nc1ccc2c(c1)OCCO2)=N\NC(=O)COc1cccc(C)c1	-2.6%	-3.3%	-0.4	-7.9%[15.4 µM]	-1.1	2.9
COc1cc(C(=O)Nc2ccc(Cl)c([N+](=O)[O-])c2)cc(OC)c1OC	/	6.5%	4.5	21.6%	0.2	-4.0
COc1ccc(-c2cc3cc(OC)c(OC)cc3c(C)n2)cc1	/	-11.2%	3.7	-3.9%[15.4 µM]	-0.5	?
CC(C(=O)Nc1ccccc1C(=O)N1CCOCC1)N(c1ccc(Cl)cc1)S(C)(=O)=O (stereo unspecified)	/	/	-12.0	4.7%[15.4 µM]	0.8	-2.7
Cc1ccc(C(CC(=O)NCCCN(C)C)c2ccc(OC(C)C)cc2)cc1 (stereo unspecified)	/	4.5%	10.7	-0.1%[15.4 µM]	0.5	2.1
